High-throughput results deposited in PubChem BioAssay by ICCB-Longwood Screening Facility, Harvard Medical School.
MgrA DNA FP: alters Staphylococcus aureus MgrA binding to DNA; fluorescence polarization; inhibition, %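 (about 10 µg/mL by stock and volumes)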; hit rate 0.13% among 84,000; AID 602314;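 active = above 50% in either of two replicates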;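 also: 0% = protein plus DNA without compound and 100% = DNA alone without protein; higher means less MgrA bound to DNA so lower polarization; one replicate is shown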
S aureus helic: blocks Staphylococcus aureus DNA helicase; purified S. aureus helicase, fluorescence unwinding assay; about half of the hits fall short of the stated cut; inhibition, %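 (tested at about 80 µM)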; AID 485395; hit rate 0.05% among 120,000;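 active = both duplicates at 50% or more, or one of them with a favoured structure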;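 also: 0% = mean of negative control wells and 100% = mean of positive control wells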
* marks the source's active call; other numbers are inactive results; x = not tested or not shown. An excerpt; the hit share may differ from the screen's.

Sample of the layout (7 entries):
SMILES | MgrA DNA FP | S aureus helic
CN(c1ccccc1)S(=O)(=O)c1ccc(C(=O)c2sc(N3CCOCC3)nc2-c2cccs2)cc1 | x | -18.0
CCn1c(SC(C)C(=O)Nc2ccnn2C(C)C)nc2sc(C)c(C)c2c1=O (stereo not drawn) | x | 6.0
CCc1cc2c(=O)n(-c3ccccc3)c(SCC(=O)c3cccs3)nc2s1 | 4.7 | -1.0
COc1ccc([C@H]2NC(=O)C(=C=[N-])C(=O)[C@@H]2[n+]2ccccc2)cc1 | 4.0 | 8.0
C=CCN1C(=O)C(O)(CC(=O)c2ccccc2)c2ccccc21 (stereo not drawn) | 1.0 | 7.0
Cc1cc(=O)[nH]c(NC(N)=NCc2ccccc2)n1 | -4.4 | 2.0
COc1ccc(-c2oc3ncn(CCCn4ccnc4)c(=N)c3c2-c2ccc(OC)cc2)cc1 | x | 13.0

This part in full, from the first entry:
SMILES | MgrA DNA FP | S aureus helic
CN(c1ccccc1)S(=O)(=O)c1ccc(C(=O)c2sc(N3CCOCC3)nc2-c2cccs2)cc1 | x | -18.0
CCn1c(SC(C)C(=O)Nc2ccnn2C(C)C)nc2sc(C)c(C)c2c1=O (stereo not drawn) | x | 6.0
CCc1cc2c(=O)n(-c3ccccc3)c(SCC(=O)c3cccs3)nc2s1 | 4.7 | -1.0
COc1ccc([C@H]2NC(=O)C(=C=[N-])C(=O)[C@@H]2[n+]2ccccc2)cc1 | 4.0 | 8.0
C=CCN1C(=O)C(O)(CC(=O)c2ccccc2)c2ccccc21 (stereo not drawn) | 1.0 | 7.0
Cc1cc(=O)[nH]c(NC(N)=NCc2ccccc2)n1 | -4.4 | 2.0
COc1ccc(-c2oc3ncn(CCCn4ccnc4)c(=N)c3c2-c2ccc(OC)cc2)cc1 | x | 13.0
COc1ccc2c(c1)c(C(=O)O)c(C)n2CCc1ccc(OC)c(OC)c1 | 1.1 | 2.0
CNc1cc(=O)n(C)c(=O)n1C | -2.1 | x
O=C(Cc1cc2ccccc2o1)NCc1ccc(F)cc1 | -3.2 | x
O=C1c2ccccc2C(=O)N1CSc1n[nH]c(-c2ccccc2Br)n1 | x | -1.0
O=C1c2cccc3cccc(c23)C(=O)N1c1ccccc1O | -1.1 | x
O=S(=O)(c1ccc(Cl)cc1)N1CCSC1c1ccco1 (stereo not drawn) | x | -10.0
Cc1cc(C(=O)OCc2nc3ccccc3s2)c(C)o1 | x | -29.0
COc1ccc2cc(S(=O)(=O)N3CCN(Cc4ccccc4)CC3)ccc2c1 | x | -19.0
CCCC(=O)Oc1c[nH]c2ccccc12 | -0.8 | x
O=C(N1CCOCC1)N1CCN(c2ccccc2)CC1 | 0.1 | 1.0
Clc1ccc(-c2csc(Nc3ncccn3)n2)c(Cl)c1 | -2.1 | -6.0
O=c1c2ccccc2nnn1CSC(=S)N1CCCC1 | x | -2.0
CC(C)CC(=O)Nc1cccc(-c2nnc(-c3cccc(NC(=O)CC(C)C)c3)o2)c1 | 0.2 | 8.0
O=c1cc(-c2ccccc2)oc2ccccc12 | -0.9 | x
COc1ccccc1NC(=O)Cn1cnc2sc(C(=O)OC(C)C)c(C)c2c1=O | -2.9 | 8.0
Cc1ccc(C)c(CSC2=NCCN2C(=O)COc2ccccc2)c1 | 0.0 | 12.0
Cc1c(S(=O)(=O)c2ccc(Cl)cc2)csc1C(=O)Nc1ccc(F)cc1F | -1.1 | x
N#C/C(=C\c1cn(-c2ccccc2)nc1-c1ccccc1)C(=O)N1CCCCC1 | x | -4.0
CCCNC(=O)c1cc(=O)n(Cc2ccc(C)cc2)c2ccccc12 | 3.5 | 19.0
Cc1nc(C)c(S(=O)(=O)NCc2csc(-c3cccs3)n2)s1 | 0.0 | x
CCC(=O)N1CCN(c2ccnc3cc(Cl)ccc23)CC1 | -2.2 | x
COc1ccc(-c2nn(CCC(=O)O)cc2C=C2C(=O)NC(=S)NC2=O)cc1OC | x | 14.0
Cc1ccc(NC(=O)C2CCCN(S(=O)(=O)c3ccc4nc(-c5ccccc5)[nH]c4c3)C2)cc1 (stereo not drawn) | 0.7 | 4.0
O=C(CSc1nnc(Cc2ccccc2)o1)NCCc1ccccc1 | -0.9 | 10.0
CSc1nc(C)c(C(=O)CNc2ccccc2)cc1C#N | x | 7.0
CC(=O)Oc1ccc2c(c1)CCC1C2CC[C@]2(C)C(=O)CCC12 (stereo partly drawn) | 0.5 | x
O=C(/C=C/c1cccs1)Nc1nc2ccc(Br)cc2s1 | x | -8.0
OC1(c2ccco2)CSC(=Nc2cccnc2)N1C1CC1 (stereo not drawn) | x | 2.0
CC(C)(C)SCC(=O)O | x | 15.0
COc1ccc(C(=O)N=c2sc3ccccc3n2C)cc1 | x | 8.0
O=C(CCc1ccccc1)NCc1ccco1 | -2.3 | 4.0
Cc1cc(C2C(C#N)=C(N)N(c3ccccc3Cl)C3=C2C(=O)CC(c2ccccc2)C3)c(C)s1 (stereo not drawn) | -1.3 | 17.0
O=C(CN1CCCCCC1=O)NCCOc1ccccc1F | x | 18.0
COc1cc(OC)c(N2C(=O)C=CC2=O)cc1Cl | -1.8 | x
O=C(O)c1cccc(NC(=O)C2CC=CCC2C(=O)O)c1 (stereo not drawn) | x | 3.0
Clc1ccc(-c2csc(-c3ccsc3)n2)s1 | 1.1 | x
Cc1ccc(CNc2nc3c(S(=O)(=O)c4cc(C)ccc4C)nnn3c3ccccc23)cc1 | 1.8 | 10.0
CCCCCCCCOc1ccc(C2Oc3ccccc3C3CC(c4ccccc4)=NN32)cc1 (stereo not drawn) | -1.3 | x
CCCCN(CC)C(=O)c1cc2cc3ccc(OC)cc3nc2o1 | x | 7.0
Cc1c(Cl)cccc1NC(=O)c1cccs1 | -1.6 | 0.0
CC1CCc2c(sc3nnn(CC(=O)c4cccs4)c(=O)c23)C1 (stereo not drawn) | x | -7.0
COC(=O)[C@H](CCSC)NC(=O)c1cccnc1SC | -1.4 | x
CC1(C)OC(CN)C(CN)O1 (stereo not drawn) | 0.2 | 1.0
Next part
SMILES | MgrA DNA FP | S aureus helic
COc1cc([C@@H]2c3cc4c(cc3[C@@H](OC3OC5COC(C)OC5C(O)C3O)[C@H]3COC(=O)[C@H]23)OCO4)cc(OC)c1O (stereo partly drawn) | 0.4 | x
Cc1ccc(CSc2nnc(NC(=O)C3=NNC(=O)CC3)s2)cc1 | x | 7.0
Cc1ccc(NCC(O)c2ccc(Cl)cc2)cc1 (stereo not drawn) | -0.8 | 13.0
O=C(CSc1nc(-c2ccccc2)cs1)NCCCN1CCCC1=O | x | -6.0
O=C(O)/C=C\C(=O)Nc1cccc(C(F)(F)F)c1 | -3.7 | 10.0
C/C(=N/OC(=O)c1ccccc1)C(=O)c1cccs1 | 1.1 | 10.0
CCN(CC)C(=O)CSc1nnc2nnc3ccccc3n12 | x | 9.0
CC1(C)Cc2ccccc2-c2nnc(SCC(=O)N3CCCCC3)n21 | -0.4 | 13.0
O=C(CSc1nc(-c2ccccc2)cc(=O)[nH]1)c1ccc([N+](=O)[O-])cc1 | -3.0 | x
CCN(CC)S(=O)(=O)c1ccc(C(=O)N2CCN(c3ccccc3)CC2)cc1 | x | 3.0
CCn1c(SCC(N)=O)nnc1-c1ccoc1C | x | 9.0
CCOC(=O)N1CCC(N2Cc3cccc(C(=O)Nc4ccc(S(=O)(=O)N(CC)CC)cc4)c3C2=O)CC1 | x | 8.0
O=C1c2ccccc2C(=O)N1CCn1c(=O)oc2ccccc21 | 0.8 | -9.0
O=C(NC1CCCC1)c1cc2c(Cl)ccc3c2n1CCO3 | x | 22.0
CC1CCCCC1NS(=O)(=O)c1ccc(S(=O)(=O)N2CCN(c3ncccn3)CC2)cc1 (stereo not drawn) | 1.7 | 10.0
Cc1cc(C)nc(N(C#N)CCOc2ccccc2)n1 | x | -1.0
Cc1c(Cc2c(C)n(C)n(-c3ccccc3)c2=O)c(=O)n(-c2ccccc2)n1C | x | 8.0
CCOc1ccc2nc(SCC(=O)NC(=O)CN3CCCC3=O)sc2c1 | x | 13.0
O=C(CCCN1C(=O)/C(=C/c2ccccc2)SC1=S)Nc1ccccc1O | x | -13.0
CC1=NN(c2ccc(Cl)c(Cl)c2)C(=O)/C1=C/c1ccc(-c2ccc3c(c2)C(=O)OC3)o1 | 2.0 | x
COc1ccc2cc(CCNC(=O)CCCc3ccccc3)c(=O)[nH]c2c1 | x | -16.0
Nc1ccc(N2CCOCC2)c(Br)c1 | 0.2 | x
O=C(OCc1ccc2c(c1)OCO2)c1ccc(S(=O)(=O)N2CCCC2)cc1 | 1.3 | 0.0
CCOc1ccc(C2CC(=O)NC(SCC(=O)NC3CCCCC3)=C2C#N)cc1 (stereo not drawn) | x | 15.0
N#Cc1c(-c2ccccc2)cc(-c2ccco2)c(C#N)c1N | 8.6 | -2.0
CNC(=S)NCCN1C(=O)S/C(=C\c2cccnc2)C1=O | x | -3.0
CCN(Cc1nc(-c2ccc(C)cc2)no1)C(=O)Nc1ccccc1OC | -2.2 | 1.0
OCCCc1nc2ccccc2n1CCc1ccccc1 | x | -13.0
CCOC(=O)c1c(C)oc2c1c(C=NCC1CCCO1)c(O)c1ccccc12 (stereo not drawn) | x | 20.0
Cc1cc2nc3c(=O)n(C4CCCCC4)c(=O)[nH]c3nc2cc1N=CN(C)C | x | -91.0
Cc1ccc(N2C(=O)NC(=O)/C(=C/c3ccc(Br)o3)C2=O)cc1Cl | 48.8* | -11.0
Nc1c(Cl)cc(-c2noc(-c3cccs3)n2)cc1Cl | -1.1 | x
N#C/C(=C\c1cn(CC(=O)NCC2CCCO2)c2ccccc12)C(=O)NCC1CCCO1 (stereo not drawn) | 2.5 | 0.0
Cc1[nH]n(-c2ccccc2)c(=O)c1Sc1ccccc1 | x | -21.0
O=C(CCC(=O)c1ccccc1)NCc1ccccc1 | 4.8 | 10.0
O=C(CC1Sc2ccccc2NC1=O)NO (stereo not drawn) | -2.7 | x
CCCCNS(=O)(=O)c1c(C)c(C)cc(C)c1C | 1.2 | 4.0
CC(C)(C)c1ccc(Oc2ncccc2[N+](=O)[O-])cc1 | -2.0 | x
C(#Cc1ccccc1)CNCc1ccc2c(c1)OCO2 | -3.0 | 3.0
Cc1ccc(-n2c(=O)cc(NCc3cccnc3)[nH]c2=O)cc1 | x | 10.0
CCCC12CC3CC(CC(N)(C3)C1)C2 | x | -15.0
COC(=O)C1=C(N)OC(CC#N)=C(C(=O)OC)C1c1ccc(OC)c(OC)c1 (stereo not drawn) | 1.8 | 1.0
Cc1cc(C)cc(NC(=O)N2CCN(C/C=C/c3ccccc3)CC2)c1 | -0.2 | 9.0
O=C(OCC(=O)c1ccc(S(=O)(=O)N2CCCC2)cc1)C1=COCCO1 | x | -2.0
O=C(/C=C\c1ccc(-c2ccc(F)cc2)o1)Nc1ccc(N2CCOCC2)cc1 | -0.1 | -15.0
Cc1ccc2cc(NC(=O)Cc3ccccc3)ccc2n1 | -3.1 | x
CCc1ccc(S(=O)(=O)NCC(=O)O)cc1 | x | -20.0
NC(=O)c1sc2nnc(-c3ccccc3)c(-c3ccccc3)c2c1N | 17.9 | x
COC(=O)Cn1cnc2c(nnn2Cc2ccccc2F)c1=O | x | -6.0
Cc1nc2ccccn2c1C(=O)N/N=C/c1ccccc1 | x | -12.0
Remaining list, next part:
SMILES | MgrA DNA FP | S aureus helic
O=C(O)COCC(=O)Nc1ccc2c(c1)oc1ccccc12 | 1.6 | 22.0
CC(=O)Nc1ccc(Nc2cc(C)c3ccccc3n2)cc1 | 0.8 | 20.0
C#Cc1cccc(NC(=O)NC(=O)c2ccccc2Cl)c1 | 0.2 | x
Cn1c(Sc2nc3ccc(Cl)cc3s2)nnc1-c1ccc2ncccc2c1 | -3.1 | x
Cc1[nH]c2ccccc2c1C(c1ccccn1)N1CCCCC1 (stereo not drawn) | x | 14.0
O=[N+]([O-])c1cccnc1Oc1ccc(OCc2ccccc2)cc1 | -1.7 | x
COC(=O)c1ccc(C(=O)NC(=S)Nc2nc3c(s2)CCCC3)cc1 | 3.7 | 8.0
CN(C)S(=O)(=O)c1cc(C(=O)NCCc2ccccc2)c(Cl)cc1Cl | x | 5.0
CCc1ccc2nc(N(CCN(C)C)C(=O)c3cccs3)sc2c1 | x | -9.0
Cc1[nH]c(=O)n(CN2CCN(c3ncc(C(F)(F)F)cc3Cl)CC2)c1C | x | 12.0
CCn1c(CN2C(=O)c3ccccc3C2=O)nc2cc(S(=O)(=O)N(C)C)ccc21 | x | -5.0
CC(=O)O[C@@H]1O[C@@H]2CO[C@@H](c3ccccc3)O[C@H]2[C@H](OC(C)=O)[C@H]1OC(C)=O | -2.5 | x
Cc1nc(SCCC(=O)O)c2ccccc2n1 | x | -7.0
Cc1nc2ccc(NC(=O)c3cccc(Br)c3)cc2s1 | -1.4 | x
C/C=C/C(=O)N1CCN(c2ccnc3cc(Cl)ccc23)CC1 | -0.5 | x
CCCCC[C@H](O)CC(=O)CCc1ccc(O)c(OC)c1 | 0.3 | x
CCOC(=O)C1CCN(c2cc(C)c(C#N)c3nc4ccccc4n23)CC1 | 0.6 | -5.0
O=C(CS(=O)(=O)Nc1cccc(C(F)(F)F)c1)Nc1cccc(C(F)(F)F)c1 | -0.8 | x
CCOc1ccc(NC(=O)CCN2C(=S)NC(C)(C)CC2C)cc1 (stereo not drawn) | x | -20.0
COc1ccc(C(=O)CSc2nc3ccc(OC)cc3[nH]2)cc1 | -1.0 | 5.0

Records above marked active in MgrA DNA FP:
SMILES | MgrA DNA FP | S aureus helic
Cc1ccc(N2C(=O)NC(=O)/C(=C/c3ccc(Br)o3)C2=O)cc1Cl | 48.8* | -11.0

Next section:
SMILES | MgrA DNA FP | S aureus helic
Cc1cc(C)n2ncc(C(=O)NC3CCCC3)c2n1 | x | 5.0
CCN1CCN(c2c(C(=O)c3ccccc3)cnc3ccc(OC)cc23)CC1 | x | 0.0
Cc1cc(C(=O)OCC(=O)c2cccs2)c2ccccc2n1 | 3.2 | 0.0
CNC(=S)NN1C(C)CCCC1C (stereo not drawn) | 0.2 | 10.0
Cc1ncoc1C(=O)NCCC(c1ccccc1)c1ccccc1 | -0.2 | 12.0
Nc1nnc(Sc2ncccc2[N+](=O)[O-])s1 | 2.1 | x
